Screening data from PubChem.
PMP22 txn prim – PMP22 gene transcription modulation; S16 Pmp22-F2sN Schwann cells (luciferase reporters placed in the Pmp22 gene), FLuc/NLuc coincidence luminescence, 24 h; Potency, µM (top dose mostly 57.5 µM), for inactives: top-dose activity change, negative = inhibition, actives largely listed as inhibitors; 2% of 43,000 active; active = clear falling dose curves in both reporters; inconclusive = both reporters move, but less clearly or upward; inactive = either reporter flat; the % is the NLuc reporter signal; also: % is scaled to controls: 0 for no effect and ±100 for the full control effect; some results filed as inactive show a strong effect at the top dose
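Schwann cells carrying the coincidence reporter were exposed to library compounds for 24 h at 37C, then lysed and read for FLuc and, after quenching, NLuc luminescence on a CCD imager.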
HTT promoter inh – HTT promoter inhibition | HEK293 HTT promoter firefly luciferase reporter (activity 0% = vehicle and -100% = no light), 24 h | Potency, µM (top dose mostly 57.5 µM), for inactives: at the highest dose activity change, negative = inhibition, hits mostly inhibitors | 0.93% of 48,000 active | AID 1508623; active = well fitted inhibition curve with a large enough effect; inconclusive = small, poorly fitted or top-dose-only effect; inactive = no such curve, though single readings can be large or run the other way; also: nearly all actives have a fitted effect of over 50% in size
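HEK293 luciferase promoter-reporter cells (2,500/well) plated 24 h, then compounds added at up to 57.5 uM final for 24 h at 37 °C. Firefly luminescence by Dual-Glo, normalized to vehicle (0%) and zero RLU (-100%).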
Numbers without * were called inactive; u = inconclusive; x = not tested or not shown; & = joins results of further samples; [ ] = remark or other dose. Potency is read from the fitted curve at half-maximal effect.

SMILES	PMP22 txn prim	HTT promoter inh
CC1CCN(S(=O)(=O)c2ccc3c(c2)N(CC(=O)NCc2ccccc2Cl)C(=O)CS3)CC1	-19%	u
Cc1ccc(NC(=O)Cn2c(=O)oc3cc(S(=O)(=O)N4CCCCC4)ccc32)c(C)c1	u	u
COC(=O)c1sc2cccc(F)c2c1S(=O)(=O)Nc1ccc(C)cc1Cl	6%	-1%
O=C(NCc1ccccc1Cl)c1ccccc1NC(=O)c1nsc2ccccc12	-18%	79%[activator]
Cc1ccc(CSc2nnc(-n3c(=O)c(C#N)cc4c(=O)n5cccc(C)c5nc43)s2)cc1	u	-17%
Cc1cc(NC(=O)c2cc(-c3ccc(Cl)cc3)on2)nn1Cc1ccc(Cl)cc1	u	-26%[11.5 µM]
O=C(COc1ccccc1-c1nc(-c2ccccc2)no1)Nc1ccccc1[N+](=O)[O-]	4%	-6%
COc1cc(NS(=O)(=O)c2ccc3[nH]c(=O)[nH]c3c2)cc(OC)c1	-11%	-11%
COc1ccc(-c2cn3c(n2)sc2cc(C(=O)NCCC4=CCCCC4)ccc23)cc1	-25%	-1%
Cc1nnc(N2C(=O)c3oc4ccccc4c(=O)c3C2c2ccc(C(C)(C)C)cc2)s1 (stereo unspecified)	u	-13%
O=C(CSc1nc(=O)[nH]c2c1CCCC2)NCc1ccccc1Cl	-8%	-8%
COc1ccc(-c2ccc(CCC(=O)O)n2CC(=O)Nc2cccc(Cl)c2C)cc1	1%	-25%
O=C(O)CNC(=O)CNC(=O)CNC(=O)CSC(=O)c1ccccc1	x	-1%
CC1=C(CO)C(=O)O[C@@H]([C@@H](C)[C@H]2CC[C@H]3[C@@H]4C[C@H]5O[C@]56[C@@H](O)C=CC(=O)[C@]6(C)[C@@H]4CC[C@]23C)C1	x	u
Cc1cc(C)c(NC(=O)COCc2cc(-c3cccs3)on2)c(C)c1	-30%	u
COc1ccc(-n2c(=O)c3c4c(sc3n(Cc3ccccc3C)c2=O)CCCC4)c(OC)c1	14%	u
COc1ccc(OC)c(S(=O)(=O)N2CCN(Cc3nc4ccc(C)cc4o3)CC2)c1	1%	0%
CCC(Oc1ccccc1F)C(=O)Nc1cc(-c2ccccc2)no1 (stereo unspecified)	6%	-9%
CCn1c(C(=O)NCCc2ccc(OC)c(OC)c2)cc2sc(Cl)cc21	-7%	u
COc1ccc(-c2nc3c(C#N)c[nH]n3c2NC2CCCCC2)c(OC)c1	u	-29%

Grouped by structure, the compounds so far containing an aryl methoxy group
SMILES	PMP22 txn prim	HTT promoter inh
COc1cc(NS(=O)(=O)c2ccc3[nH]c(=O)[nH]c3c2)cc(OC)c1	-11%	-11%
COc1ccc(-c2cn3c(n2)sc2cc(C(=O)NCCC4=CCCCC4)ccc23)cc1	-25%	-1%
COc1ccc(-c2ccc(CCC(=O)O)n2CC(=O)Nc2cccc(Cl)c2C)cc1	1%	-25%
COc1ccc(-n2c(=O)c3c4c(sc3n(Cc3ccccc3C)c2=O)CCCC4)c(OC)c1	14%	u
COc1ccc(OC)c(S(=O)(=O)N2CCN(Cc3nc4ccc(C)cc4o3)CC2)c1	1%	0%
CCn1c(C(=O)NCCc2ccc(OC)c(OC)c2)cc2sc(Cl)cc21	-7%	u
COc1ccc(-c2nc3c(C#N)c[nH]n3c2NC2CCCCC2)c(OC)c1	u	-29%

More entries follow.
SMILES	PMP22 txn prim	HTT promoter inh
Cc1cc(OCCCSc2nc(-c3ccc(C(C)(C)C)cc3)nc3cc(=O)[nH]n23)ccc1Cl	u	-13%
CCOc1ccc(NC(=O)NCc2c(-n3cccc3)sc3c2CCCC3)cc1	-8%	-15%
Cc1ccc(NC(=O)c2ncn(-c3ccccc3)n2)cc1Cl	-9%	52%[activator]
CC(C)(C)C(=O)Nc1c(C(=O)N2CCN(c3ccc(F)cc3)CC2)oc2ccccc12	5%	u
NCCCC[C@H](N[C@@H](CCc1ccccc1)C(=O)O)C(=O)N1CCC[C@H]1C(=O)O	x	12%
CCN(CC)S(=O)(=O)c1ccc(C(=O)N2CC(=O)Nc3ccc(F)cc3C2c2ccccc2)cc1 (stereo unspecified)	-3%	-16%
COc1ccccc1N(C)C(=O)Cn1c(=O)oc2cc(S(=O)(=O)N3CCCC3)ccc21	-5%	-8%
CCOC(=O)c1c(-c2ccc(C)cc2C)csc1NC(=O)c1ccccc1Cl	-6%	-7%
CCOc1ccc(NS(=O)(=O)c2c(C)nc3sc(CC)nn3c2=O)cc1	-11%	u
CCOc1ccc(-c2cc(CCCC(=O)NCCc3ccc(OC)c(OC)c3)no2)cc1	-14%	u
Cc1ccc(SCc2nc(-c3ccc(C(=O)NCc4ccc(Cl)cc4)cc3)oc2C)cc1	u	3%
COc1ccc(-n2ccnc(NCc3ccc(Cl)cc3)c2=O)cc1	-33%	u
COc1ccc(CNc2oc(-c3ccc(COc4ccc(OC)cc4)o3)nc2C#N)cc1	-19%	u
Cc1ccccc1NC(=O)N1CCC(CN2CCCC2)CC1	5%	-12%
CCc1ccc(NCc2cc3cc4c(cc3n(CC(=O)Nc3ccc(C)cc3)c2=O)OCO4)cc1	u	-24%
COc1cc(OC)c(N(C)C(=O)c2cn(C)c(=O)c3cc(OC)c(OC)cc23)cc1Cl	-12%	-3%
Cc1ccc(C)n1-c1nnc(N2CCCC(C(=O)Nc3ccccc3Br)C2)s1 (stereo unspecified)	17µM*	-16%
Fc1ccc(C(c2ccc(F)cc2)N2CCN(CC=Cc3ccccc3)CC2)cc1	x	-20%
CS(=O)(=O)N(Cc1ccco1)CC(O)Cn1c2ccccc2c2ccccc21 (stereo unspecified)	x	-11%
CCN(C(=O)CSc1ncc(S(=O)(=O)c2ccc(C)c(Cl)c2)c(=O)[nH]1)c1cccc(C)c1	-39%	-24%
Cc1ccc(C)n1-c1nnc(N2CCCC(C(=O)NCc3ccccc3)C2)s1 (stereo unspecified)	u	-4%
CC(=O)Nc1nonc1-c1nnc(SCc2ccc(F)cc2Cl)n1C	u	-19%
Cc1cccc(NC(=O)N2CC=C(c3c[nH]c4ccccc34)CC2)c1C	u	-24%
COc1ccc(CCNC(=O)CSc2cc(=O)n(C)c3ccccc23)cc1OC	-32%	-9%
CCc1ccc(-n2nc3cc(C)c(NC(=O)c4cc(Cl)ccc4OC)cc3n2)cc1	0%	-9%
CCCSc1ncc(Cl)c(C(=O)N(Cc2cccc(Cl)c2)C2CCS(=O)(=O)C2)n1 (stereo unspecified)	-21%	u
CCC(=O)N1CCc2cc(S(=O)(=O)NC(CC(C)C)C(=O)Nc3cc(C)ccc3OC)ccc21 (stereo unspecified)	3%	-17%
CCOc1ccc(CCNC(=O)C2CC(=O)N(CCc3ccc(OC)c(OC)c3)C2)cc1OCC (stereo unspecified)	-4%	-19%
CCOc1ccc(/C=C/c2nc(C#N)c(N3CCCCC3)o2)cc1	-35%	-14%
CCN(CC)S(=O)(=O)c1ccc2c(c1)N(CC(=O)Nc1ccc(C)cc1C)C(=O)C1CCCN21 (stereo unspecified)	6%	-17%
CCOc1ccc(-c2cc3nc(C4CCN(C(=O)OC(C)(C)C)CC4)c(C(=O)Nc4ccc(C(=O)OC)cc4)cn3n2)cc1	5%	-9%
CC1(C)[C@H]2CC[C@]3(C)[C@@H](C(=O)C=C4[C@@H]5C[C@@](C)(C(=O)O)CC[C@]5(C)CC[C@]43C)[C@@]2(C)CC[C@@H]1O	x	-3%
CNCCc1ccccn1	x	2%
CCC(Sc1nc2ccccc2c2nc(CCc3c(C)n[nH]c3C)nn12)C(=O)Nc1ccc(F)cc1 (stereo unspecified)	u	-6%
Cc1ccc(-c2nnc(Nc3ccc(O)cc3)c3ccccc23)cc1S(=O)(=O)NCC1CCCO1 (stereo unspecified)	u	u
C[C@]12CCC(=O)C=C1CC[C@@H]1[C@H]2[C@@H](O)C[C@@]2(C)[C@H]1CC[C@]2(O)C(=O)CO	x	-17%
COc1cc(NC(=O)CSc2ccc(-c3sc(C)nc3C)nn2)cc(OC)c1	u	u
CCN1CCN(c2ncc3c(n2)CCN(Cc2cccc(F)c2F)C3)CC1	-4%	-8%
CCCCC(CC)COC(=O)c1ccc(N(C)C)cc1 (stereo unspecified)	x	-2%
O=C(CSc1ncc2c(n1)-c1ccccc1N(Cc1ccccc1)S2(=O)=O)Nc1ccccc1	33%	-15%

Reprinted at random: five records from the list
SMILES	PMP22 txn prim	HTT promoter inh
Cc1cccc(NC(=O)N2CC=C(c3c[nH]c4ccccc34)CC2)c1C	u	-24%
CC(=O)Nc1nonc1-c1nnc(SCc2ccc(F)cc2Cl)n1C	u	-19%
CCOc1ccc(-c2cc3nc(C4CCN(C(=O)OC(C)(C)C)CC4)c(C(=O)Nc4ccc(C(=O)OC)cc4)cn3n2)cc1	5%	-9%
CCC(=O)N1CCc2cc(S(=O)(=O)NC(CC(C)C)C(=O)Nc3cc(C)ccc3OC)ccc21 (stereo unspecified)	3%	-17%
CCOc1ccc(/C=C/c2nc(C#N)c(N3CCCCC3)o2)cc1	-35%	-14%

Following part
SMILES	PMP22 txn prim	HTT promoter inh
CCOc1cccc(C2c3[nH]c4ccccc4c3CCN2C(=O)CCc2ccccc2)c1 (stereo unspecified)	0%	-25%
CC(=O)c1cccc(NC(=O)c2ccc3nc(Cc4ccccc4)oc3c2)c1	-31%	u
CCOc1ccccc1NC(=O)C1=C(C)Nc2ncnn2C1c1ccc(C)o1 (stereo unspecified)	-12%	-12%
CCc1ccc(NC(=O)CSc2nccn2-c2ccc(OC)cc2)cc1	u	u
O=C(CCc1nc(-c2cccs2)no1)Nc1ccccc1[N+](=O)[O-]	12%	1%
CC1CN(C(=O)CCC(=O)NCc2ccc(F)cc2)c2cc(Cl)ccc2O1 (stereo unspecified)	-15%	-10%
COc1cc(NC(=O)CSc2nc(C)c(C(=O)Nc3ccccc3)c(-c3ccc(OC)c(OC)c3)c2C#N)c(OC)cc1Cl	-1%	-26%
CSCCC(NS(=O)(=O)c1ccc2c(c1)oc(=O)n2C)C(=O)N1CCN(c2cccc(Cl)c2)CC1 (stereo unspecified)	-25%	-25%
COc1ccc(N2CCN(C(=O)Cn3ncc4c3-c3cc(C)ccc3OC4)CC2)cc1	-5%	-13%
COc1ccc(CCNC(=O)CSc2nc3ccccc3nc2Cc2ccc(Cl)cc2)cc1OC	u	-8%
COc1ccc(CNCCC(c2ccc3c(c2)OCO3)c2ccccc2OC)cc1 (stereo unspecified)	u	-27%
Cc1cc(NC(=O)c2ccc(F)cc2)ccc1-c1cc2ccccc2oc1=O	-5%	-21%
CCCCC(=O)Nc1cc2nn(-c3ccc(OCC)cc3)nc2cc1C	3%	13%
COc1ccc(C)cc1NC(=O)c1ccc2nc(Cc3ccccc3)oc2c1	-8%	u
CC(C)=CC[C@@H](O)C1=CC(=O)c2c(O)ccc(O)c2C1=O	x	u
COc1ccc(CNC(=O)c2cc(-c3ccc(Br)s3)nc3ccccc23)c(OC)c1	-1%	-19%
COc1ccc(-c2nc3sc(CCNC(=O)c4ccc(Br)o4)c(C)n3n2)cc1	u	2%
Cc1c(Cl)cccc1NC(=O)CSc1ncnc2c1sc1ccccc12	5%	7%
Cc1nc2ccccc2n1CCc1nc2c3ccccc3nc(SCc3ccc(F)cc3)n2n1	2%	-9%
CCc1ccc(CN2C(=O)c3ccccc3C2C(=O)NC2CCCCCC2)cc1 (stereo unspecified)	-5%	-19%
Cc1ccc(C)c(NS(=O)(=O)c2cc3c(cc2Cl)NC(=O)CO3)c1	26%	-30%
Cc1ccc(S(=O)(=O)N2CCN(Cc3cc(Br)ccc3O)CC2)cc1	u	u
Cc1ccc(C)c(Cn2cnc3c(cnn3-c3ccc(F)cc3)c2=O)c1	5%	-2%
O=C(CSc1nc2c([nH]c3ccccc32)c(=O)n1-c1ccccc1)Nc1ccccc1F	u	-18%
COCCNc1ncnc2c1cnn2-c1cc(Cl)ccc1C	-2%	-21%
CN(C)c1ccc(-c2nc(-c3cc4cc(Cl)ccc4oc3=O)cs2)cc1	41%	-6%
O=C(Nc1ccc(OC(F)(F)F)cc1)C1CCCN(S(=O)(=O)c2cccc3nonc23)C1 (stereo unspecified)	-26%	-19%
Cc1ccc(N2CCN(C(=O)C3CCN(c4ncnc5c4nc4n5CCCCC4)CC3)CC2)c(C)c1	-11%	u
CCOc1ccc(CCNC(=O)CCCn2c(=O)c3cccn3c3cccnc32)cc1	u	0%
CCOC(=O)c1ccc(NC(=O)CSc2nccn2Cc2ccc(OC)cc2)cc1	u	u
O=C1COc2cc(S(=O)(=O)CCC(=O)N3CCN(c4ccccc4F)CC3)c(Cl)cc2N1	-27%	-23%
COc1ccc(CCNC(=O)Cn2nnc(-c3ccc(C(F)(F)F)cc3)n2)cc1OC	5%	-18%
CCCCOc1ccc(S(=O)(=O)n2nc(C)c(S(=O)(=O)N3CCCCCC3)c2C)cc1	10%	-5%
Cc1ccc2oc(C(=O)Nc3ccc(S(=O)(=O)Nc4nc(C)cc(C)n4)cc3)cc(=O)c2c1	-62%	-20%
COc1cc(NS(=O)(=O)c2ccc(NC(=O)c3ccc(OC)c(Br)c3)cc2)nc(OC)n1	-49%	-18%
COc1ccc(Oc2nc3c(c(=O)n(Cc4ccc(Br)cc4)c(=O)n3C)n2C)cc1	-36%	3%
O=C(CCCN1CCC(O)(c2ccc(Cl)cc2)CC1)c1ccc(F)cc1	x	-16%&-11%
CCc1nn(CC(=O)NC(C)CC)c(=O)c2cc3c(OC)cccc3n12 (stereo unspecified)	6%	-3%
COc1cc(C(=O)Nc2ccc(-c3nc4ccccc4o3)c(O)c2)cc(OC)c1OC	5%	-13%
